Sa RN4220 lethal = kills Staphylococcus aureus RN4220 | 0.33% of 330,000 active | inhibition, % (test concentration not listed) | S. aureus RN4220 growth, OD600, 16 h;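 active = z-score of -3 or lower and OD600 up to 0.18 on both plates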;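 note: plate controls were untreated cells for no effect and reference antibiotic for full effect; stock transfer was 100 nL into about 80 µL; one replicate is shown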
Autofluor counter = flagged as autofluorescent in microsphere protease counterscreen. fluorescence intensity (concentration not given with the values). 3.1% of 360,000 active. compound autofluorescence counterscreen, microsphere flow cytometry; active compounds read high. AID 624483;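 active = at least 3 SD above the mean of all compounds, about 16000 in these data; inconclusive = too few beads counted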;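 note: 100 nL of 1 mM stock went into each well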
BJeLR viability = kills HRASV12-expressing BJeLR cells. 0.17% of 300,000 active. BJeLR (HRASV12) viability, CellTiter-Glo ATP luminescence, 48 h; reference of the scale not given here. inhibition, % (no concentration beside the values). AID 1554;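 active = replicate mean above 50%; inconclusive = above 50% but judged a plate artefact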;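 note: 50 nL library stock added to about 25 µL; numbers are from one replicate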
PrP 5UTR inh = suppresses PrP 5' UTR mRNA reporter expression | cell-based PrP 5' UTR mRNA reporter, plate reader | 0.35% of 340,000 active | inhibition, % (concentration not given with the values) | AID 488862;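 active = every replicate at 50% or more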;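 note: 0 = median of the neutral control wells; tested in H4 reporter cells; numbers are from one replicate; inactives centre near -14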
ugtP null kill = compounds lethal to S. aureus RN4220 ugtP deletion mutant. OD600 growth, 16 h; some inactives read as strong as hits. growth inhibition, % (test concentration not listed). 0.54% of 330,000 active;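 active = z-score under -3 and OD600 up to 0.15 on both plates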;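 note: plate controls were untreated wells for no effect and antibiotic for full effect; wells of about 80 µL received 100 nL stock; the first replicate is given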
Mtb hypoxia rep = inhibitors of hypoxia-regulated fluorescent reporter in Mycobacterium tuberculosis | 0.1% of 300,000 active | fluorescence inhibition, % (concentration not given with the values) | M. tuberculosis hypoxia-regulated fluorescent reporter, fluorescence;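 active = 35 to 45% if threefold the growth effect, above 45% if 1.5-fold the growth effect; inactive = the rest, general growth blockers included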;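 note: wells of about 50 µL received 100 nL stock; 0% = vehicle wells and 100% = reference inhibitor wells; whole bacteria with a GFP reporter of the hypoxia response; strong numbers were not always called active; many hits fall short of the cut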
Mtb hypoxia rep growth = recorded beside Mtb hypoxia rep, whose call it bears; growth inhibition, %; measured here: M. tuberculosis growth (absorbance);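 0% = vehicle and 100% = reference antibiotic; read after six days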
An asterisk follows results filed as active; ? = inconclusive; nt = no result given.

SMILES	Sa RN4220 lethal	Autofluor counter	BJeLR viability	PrP 5UTR inh	ugtP null kill	Mtb hypoxia rep	Mtb hypoxia rep growth
CS(=O)(=O)N(CC(=O)NCc1ccc(Cl)cc1)C1CCCCC1	-4.2	4985	-9.5	-24.4	-4.0	6.8	5.9
COc1ccc(/C=C/C(=O)N(C)c2ccccc2C(=O)O)cc1	-6.1	4396	-2.9	-17.7	1.7	7.6	5.2
COc1ccc(S(=O)(=O)N(C)CC(=O)Nc2cccc(C(C)=O)c2)cc1Cl	2.7	18037*	-14.7	-18.3	-2.6	1.0	2.8
O=C(NN=C1CCCC1)c1cc(Br)ccc1O	12.5	6204	5.2	-22.8	15.9	12.3	6.8
COc1cc(C(=O)OCC(=O)N(C)c2ccccc2)cc(OC)c1OC	-5.6	3794	0.7	-15.9	-7.1	11.4	-0.9
O=C(C1=C[C@H](C2CC2)C[C@H](OCc2ccc(CO)cc2)O1)N1CCN(Cc2ccc3c(c2)OCO3)CC1	nt	2719	5.2	-10.3	nt	nt	nt
Cc1ccc(NC(=O)Nc2ccccc2CC[N+](=O)[O-])cc1	7.4	4684	-2.5	-8.8	1.3	4.8	-5.9
CC(C)(C)c1cc(-c2ccccc2)n[nH]1	4.3	4600	2.6	-9.0	4.3	4.8	-3.5
NC(=NN=Cc1ccnc2ccccc12)SC1CC(=O)N(c2ccc(Br)cc2)C1=O (stereo not drawn)	-6.8	nt	nt	nt	-24.1	3.4	5.5
O=C(NCCCc1ccccc1)C1CCC(=O)N(Cc2ccc(Cl)cc2)C1 (stereo not drawn)	-1.8	6072	-0.2	-22.5	-7.8	-11.5	5.4
COc1ccc(NC(=O)CN(C)C(=O)c2ccc(C)s2)cc1	1.0	5504	0.2	7.3	-2.7	nt	nt
Cc1nn(-c2ccccc2)c2c1C(c1ccc([N+](=O)[O-])cc1)C(C#N)=C(N)O2 (stereo not drawn)	9.5	3652	6.8	-15.4	7.1	5.9	6.1
O=C(CSc1nnc(-c2ccc3c(c2)OCCO3)o1)N1CCCC1	0.3	4696	6.6	-38.9	-17.3	nt	nt
CCCC(=O)Nc1sc2c(c1C#N)CCCCC2	17.9	3213	9.2	-50.3	0.0	3.0	-0.9
CC(=O)Nc1ccc(NC(=S)NC(=O)c2oc3ccccc3c2C)cc1	4.0	2427	-4.8	-49.7	45.4	-11.1	-8.1
Fc1ccc(CNC(=S)Nc2ccc(OC(F)F)cc2)cc1	-1.5	2634	-3.2	-40.7	-0.9	10.1	8.6
COc1ccc(C(=O)NCCc2nc3cc([N+](=O)[O-])ccc3n2C)cc1	0.1	6383	5.5	-11.4	-3.9	-3.7	2.6
Cn1c(O)c(C=NCCc2c[nH]c3ccccc23)c(=O)n(C)c1=O	3.5	4089	-6.4	-12.0	0.6	-1.2	7.9
COC(=O)N/N=C/c1cc(Cl)cc(Cl)c1OCc1ccc(F)cc1	nt	2313	-2.5	-33.3	nt	nt	nt
COc1cc2ncnc(N[C@H](C)c3ccccc3)c2cc1OC	7.0	3352	-0.2	-22.2	3.2	10.6	1.6
CC(=Nc1ccc2c(c1)CCC2)c1c(O)n(C)c(=O)n(C)c1=O	6.1	3116	3.3	-12.7	8.2	0.9	7.2
CCOCCOC(=O)C(C)Oc1ccc(Oc2ncc(Cl)cc2Cl)cc1 (stereo not drawn)	12.6	10563	-0.1	-2.7	11.4	4.8	9.7
COc1ccc(CCN(C)C(=O)C23CC4CC(CC(Cl)(C4)C2)C3)cc1OC	3.7	7063	-10.3	-15.6	-1.0	6.3	-1.5
Cc1ccc(F)c(NC(=O)CCOc2ccccc2C)c1	3.3	3792	3.2	-57.8	10.8	3.1	-7.4
CCc1ccccc1-n1nnnc1SCC(=O)Nc1ccc(N2CCN(C)CC2)cc1	-0.9	6084	-1.5	-4.7	2.3	9.5	1.9
O=c1cc(CO)oc(C(Nc2ccccn2)c2ccccc2F)c1O (stereo not drawn)	2.3	5181	-2.8	-15.4	11.7	11.6	6.1
CC(C)C[C@H](NC(=O)Nc1ccc2c(c1)OCCO2)C(=O)O	5.0	5025	-10.1	-15.2	10.9	-6.9	-6.4
O=C(CC(C(=O)O)c1c(F)cccc1Cl)c1ccc(Cl)cc1 (stereo not drawn)	8.3	3808	7.3	-12.5	2.1	4.1	5.6
Cc1ccccc1CCN(C(=O)c1csnn1)C(C(=O)NC1CCCC1)c1ccco1 (stereo not drawn)	1.6	3727	-14.7	-18.9	0.6	7.2	2.4
CNc1ccc(/C=C/C(=O)c2ccc3c(c2)OCCO3)cc1[N+](=O)[O-]	1.8	2474	0.9	-5.9	-10.3	17.0	9.6

Already shown: entries from further up.
SMILES	Sa RN4220 lethal	Autofluor counter	BJeLR viability	PrP 5UTR inh	ugtP null kill	Mtb hypoxia rep	Mtb hypoxia rep growth
Cc1ccc(F)c(NC(=O)CCOc2ccccc2C)c1	3.3	3792	3.2	-57.8	10.8	3.1	-7.4
CCc1ccccc1-n1nnnc1SCC(=O)Nc1ccc(N2CCN(C)CC2)cc1	-0.9	6084	-1.5	-4.7	2.3	9.5	1.9
O=c1cc(CO)oc(C(Nc2ccccn2)c2ccccc2F)c1O (stereo not drawn)	2.3	5181	-2.8	-15.4	11.7	11.6	6.1
CC(C)C[C@H](NC(=O)Nc1ccc2c(c1)OCCO2)C(=O)O	5.0	5025	-10.1	-15.2	10.9	-6.9	-6.4
O=C(CC(C(=O)O)c1c(F)cccc1Cl)c1ccc(Cl)cc1 (stereo not drawn)	8.3	3808	7.3	-12.5	2.1	4.1	5.6
Cc1ccccc1CCN(C(=O)c1csnn1)C(C(=O)NC1CCCC1)c1ccco1 (stereo not drawn)	1.6	3727	-14.7	-18.9	0.6	7.2	2.4
CNc1ccc(/C=C/C(=O)c2ccc3c(c2)OCCO3)cc1[N+](=O)[O-]	1.8	2474	0.9	-5.9	-10.3	17.0	9.6

(more compounds)
SMILES	Sa RN4220 lethal	Autofluor counter	BJeLR viability	PrP 5UTR inh	ugtP null kill	Mtb hypoxia rep	Mtb hypoxia rep growth
O=C(NC12CC3CC(CC(C3)C1)C2)C1CCCN1C(=O)Nc1ccccc1 (stereo not drawn)	2.9	4078	6.5	-25.4	1.6	12.3	-0.4
COc1ccc(C2CC(=O)N(CC(=O)NCC3CCCO3)c3ccccc3S2)cc1 (stereo not drawn)	5.1	2020	-5.2	-17.7	9.9	-1.7	6.0
COc1cc2c3c(c1)c(N=NC(N)=S)c(O)n3C(C)(C)C=C2C	4.6	3436	-10.3	5.1	9.4	6.7	3.5
CCCNC(=O)COC(=O)c1cccnc1Nc1ccccc1F	0.5	1973	4.9	-15.1	0.2	7.1	1.9
N#Cc1c(-c2ccccc2)cc(-c2ccccc2)nc1SCc1nnc(-c2ccccc2)o1	-3.0	9066	2.9	-2.0	-16.8	-1.8	2.7
Cn1c(=O)c2c(nc(CN3CCN(C(=O)c4ccco4)CC3)n2CC(N)=O)n(C)c1=O	7.0	4195	-0.3	3.0	15.6	-0.1	-7.4
CCOc1ccc(NC(=O)C2CC3CCC2C3)cc1 (stereo not drawn)	1.2	6444	-6.3	nt	2.4	2.1	-0.5
Cc1cnc(NC(=O)CSc2nnc(Cc3ccccc3)o2)s1	0.8	13021	-5.5	-16.6	13.3	-1.5	-1.8
O=C(CCC1CCCCC1)N1CCN(Cc2ccc3c(c2)OCO3)CC1	-0.1	9906	0.3	7.7	5.6	4.4	10.6
CSc1cccc(NC(=O)c2ccco2)c1	3.5	3081	-6.2	-43.9	-2.9	10.2	4.8
CCc1c(C)sc(NC(=S)Nc2nc(C)cc(C)n2)c1C(=O)OC	3.1	4118	-6.2	-18.7	22.6	17.0	7.7
CSCC[C@H](NC(=O)C1CCN(S(=O)(=O)c2ccccc2)CC1)C(=O)NC1CC1	0.7	5485	2.5	4.8	1.1	2.4	2.9
O=C(NCc1ccco1)c1cc2nc(-c3ccc4c(c3)OCO4)cc(C(F)(F)F)n2n1	-0.2	?	-8.1	-4.4	-3.0	-3.2	2.0
C=C(Br)Cn1c(CC)nc2ccccc21	5.9	3495	1.6	-2.4	8.1	4.6	6.4
CCOc1cccc(-c2cc(C(=O)NN=Cc3ccc(OC)c(CN4CCOCC4)c3)c3ccccc3n2)c1	4.7	nt	nt	nt	1.4	-0.8	-4.4
COc1cc(C=NNC(=O)c2nnn(-c3nonc3N)c2C(C)C)ccc1O	4.1	nt	nt	nt	2.6	-4.4	3.8
CC(=O)Nc1cccc(C(=O)OCC(=O)N2CCN(C(=O)COC(=O)c3cccc(NC(C)=O)c3)CC2)c1	3.8	?	nt	-28.6	7.3	12.7	5.3
Cc1ccc(N2C(=O)c3ccc(C(=O)N4CCN(c5ccccc5F)CC4)cc3C2=O)cc1	13.7	6011	3.6	-5.3	15.1	3.1	8.5
CCn1c(=S)[nH]c2ccccc21	-14.9	3445	5.0	1.8	-2.5	10.3	10.4
NC(=O)c1cc2cc(Br)ccc2oc1=NNC(=O)c1cccc(F)c1	-2.1	nt	nt	nt	-4.8	-8.7	-3.5
CSc1nc(-c2ccc(Cl)cc2)nn1S(=O)(=O)c1ccccc1	-4.5	4249	5.6	-72.0	-2.9	nt	nt
CCc1ccc(C2C3=C(CC(C)(C)CC3=O)OC3=C2C(=O)CC(C)(C)C3)cc1	6.0	1967	-9.2	-19.9	3.5	-2.5	10.6
CCc1nc(C)cn1S(=O)(=O)c1ccc([N+](=O)[O-])cc1	97.4*	4586	-1.8	-17.3	94.3*	3.5	-2.4
CC(CN1CCCCC1)OC(=O)c1ccc(Cl)cc1 (stereo not drawn)	2.7	3239	-3.2	-3.9	5.7	8.2	12.3
COCCNC(=O)c1ccc(NS(C)(=O)=O)cc1	1.3	4265	-5.5	5.9	9.3	10.9	1.0
N#C/C(=N\Nc1cccc2ccccc12)c1nnc2n1CCCCC2	nt	2654	-6.4	-20.7	nt	nt	nt
O=Cc1c(N2CCOCC2)nc2ccccn2c1=O	5.1	2117	7.2	-20.7	12.6	nt	nt
COc1ccc(NCc2nnc(SCC(=O)Nc3cc(C)cc(C)c3)o2)cc1	-0.3	21267*	-4.1	-14.4	4.4	6.7	8.1
COc1cc(-c2cc(OC)c3c(C)oc(C)c3c(=O)c2)ccc1O	8.8	10072	9.3	-11.4	5.1	11.1	2.7
Cc1ccc(C)c(NC(=O)C(=O)NCCc2c[nH]c3ccccc23)c1	-0.5	4677	5.9	-19.9	10.3	4.3	-4.5
CCOC(=O)N1CCN(S(=O)(=O)c2ccc(C(=O)N(CCN(C)C)c3nc4ccc(Cl)cc4s3)cc2)CC1	3.3	4465	-4.3	-3.9	14.7	10.2	-5.3
Cc1ccc[n+](/C(C(=S)NCc2ccco2)=C(/[O-])c2ccccc2Cl)c1	4.2	?	-2.9	-22.4	6.5	5.4	1.4
Cc1c2cnn(CC(=O)NC3CCCC3)c(=O)c2c(C)n1Cc1ccccc1	-3.4	nt	-1.8	-57.7	-6.1	-9.2	-1.8
O=C(N/N=C/c1cccnc1)c1cccc(F)c1	nt	4217	-0.8	-20.9	nt	nt	nt
COc1ccc(C(=O)CN2C(=O)COc3ccccc32)cc1	5.6	4239	1.0	-15.7	7.2	3.3	3.3
CCc1cccc(NC(=S)N(CCOC)C(C)c2ccco2)c1 (stereo not drawn)	5.1	5498	25.8	-24.5	10.7	-7.1	1.2
CCc1ccc(NC(=O)NCCN2CCc3ccccc3C2)cc1	-0.9	3538	nt	-21.0	-4.9	nt	nt
CCCn1c(N2CCN(C(=O)NCc3ccccc3)CC2)nc2ccccc21	0.5	3356	6.8	-16.9	-9.5	11.6	4.5

Screening results deposited in PubChem BioAssay by several laboratories.
